# Source: PubChem (National Center for Advancing Translational Sciences (NCATS))
# SARS PLpro yeast = blocks SARS-CoV papain-like protease in a yeast assay; S. cerevisiae expressing SARS-CoV PLpro, growth rescue; control for the full effect not named in the record; Potency, µM (titrated, usually from 32.9 µM), inactives show at the top dose activity, positive = growth rescue; 330,000 tested, 0.19% active; AID 485353; active means well fitted rising curve with a large enough effect; inconclusive means small, poorly fitted or top-dose-only effect; inactive means no such curve, though single readings can be large or run the other way; further: 0% is about no effect; nearly all actives have a fitted effect of over 55% in size; growth read by luminescence after 48 h
# 2A StopGo = lowers the luciferase signal of an FMDV 2A StopGo reporter | AID 1159524 | Potency, µM (titrated, usually from 57.9 µM), inactives show top-dose signal change, negative = less light | 410,000 tested, 1.2% active | human cells with a luciferase reporter of 2A StopGo recoding; control for the full effect not named in the record; active = well fitted falling curve with a large enough effect; inconclusive = small, poorly fitted or top-dose-only effect; inactive = no such curve, though single readings can be large or run the other way; tested in HEK293T cells; further: on the % scale 0 is the no-effect control and ±100 the full control effect; nearly all actives have a fitted effect of over 45% in size; luciferase light after 4 h
# RE007 growth inh = less growth of the S. pombe RE007 Vpr strain. 360,000 tested, 0.21% active. S. pombe RE007 Vpr strain, BacTiter-Glo ATP luminescence, 24 h; control for the full effect not named in the record. Potency, µM (titrated, usually from 92.2 µM), inactives show at the top dose activity change, negative = less growth; active = well fitted falling curve with a large enough effect; inconclusive = small, poorly fitted or top-dose-only effect; inactive = no such curve, though single readings can be large or run the other way;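 further: on the % scale 0 is the no-effect control and ±100 the full control effect; nearly all actives have a fitted effect of over 50% in size; the assay follows cell death caused by Vpr and the record does not say whether a fall means rescue or toxicity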
#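 Fission yeast strain RE007, carrying one chromosomally integrated HIV-1 vpr copy, was seeded at OD 0.01 in PMG+AL medium with 23 nL pinned compound. After 24 h at 30 °C and 99% humidity, viability was read by BacTiter-Glo luminescence.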
# Starred values were filed as active, the others as inactive; u = inconclusive; [ ] = dose if it differs, or a comment. Potency means the concentration at half of the fitted maximal effect. This is a subset; the hit share may differ from the screen's.
# The line under a structure holds: SARS PLpro yeast, 2A StopGo, RE007 growth inh
- Cc1ccc(-c2ccc(=O)n(CCC(=O)N3CCC4(CC3)OCCO4)n2)cc1
  -2%, 34%[activator], -17%
- C=C[C@@H]1c2cc(C)ccc2N(S(=O)(=O)c2ccc(C)cc2)[C@H](c2ccccc2)C1(C#N)S(=O)(=O)c1ccccc1 (stereo partly drawn)
  -8%, -10%, -11%
- C[C@H]1CN=C(N(C)C)N1CCc1ccccc1
  -4%, 3%, -1%
- COc1ccc(NC(=O)[C@@H]2CCCN2S(=O)(=O)c2cccc3cccnc23)cc1
  3%, -7%, 0%
- CC(C)=C[C@H]1C[C@H](C)[C@H]2CC[C@H](C)c3c(O[C@@H]4OC[C@@H](O)[C@H](O)C4O)c(O)c(C)c1c32 (stereo partly drawn)
  0%, -19%, u
- COc1cccc(-c2ncc3ccccc3c2CO)c1
  -2%, 13%, -7%
- CCOC(=O)C1=C(CC)Nc2ccccc2N=C1NC(=O)c1cc(C)on1
  -2%, 6%, -3%
- COc1ccccc1C(=O)NC(=O)CSc1nnnn1C
  1%, 8%, 3%
- COc1ccc(C(=O)Nc2cccc(S(=O)(=O)NC3=NCCCCC3)c2)cc1
  2%, 2%, 1%
- Cc1cc(OCC(=O)OCC(=O)NC2CCCCCC2)ccc1Cl
  -2%, -2%, 5%
- CCOc1ccc(NC(=O)COC(=O)CSCC(=O)Nc2ccc(C)cc2C)cc1
  2%, 9%, -13%
- COc1ccc(C(=O)OCC(=O)N2CCOCC2)cc1S(=O)(=O)N1CCOCC1
  6%, -2%, -7%
- C[C@@H]1CN([C@@H](C)CO)C(=O)c2cc(NC(=O)C3CC3)ccc2O[C@@H]1CN(C)C(=O)NC1CCCCC1
  6%, -4%, 6%
- CCN1C(=O)[C@@H]2[C@H](C1=O)[C@@H]1C(=O)Nc3ccccc3C(=O)N1[C@@H]2c1ccc(Br)cc1
  1%, 7%, 4%
- O=C(O)/C=C/c1cn(-c2ccccc2)nc1-c1cccs1
  -3%, 15%, -10%
- C[C@H](CO)N1C[C@H](C)[C@@H](CN(C)Cc2ccc3c(c2)OCO3)Oc2c(NC(=O)Cc3ccccc3)cccc2C1=O
  -2%, 40%[activator], 6%
- CC(C)(C)c1ccc(NC(=O)C2=CN3CCS(=O)(=O)N=C3C=C2)cc1
  -1%, -2%, -5%
- COC(=O)[C@@]12CCCCN1[C@H](c1ccc(-c3cccc(Cl)c3)c(OC)c1)[C@H]1C(=O)N(C)C(=O)[C@H]12
  1%, -24%, 1%
- COc1cccc(NC(=O)CCc2ccccc2)c1
  2%, 46%[activator], -3%
- Cc1ccc(C(=O)OCC(=O)N2CCCCCC2)c(O)c1
  8%, 44%[activator], -10%
- CC(C)N(C(=O)[C@H]1CC(CC(=O)NCc2ccco2)C(=O)N2CCc3c([nH]c4ccccc34)[C@]12C)C(C)C (stereo partly drawn)
  -1%, -17%, -3%
- COc1cc(/C=N/NC(=O)c2ccc(CSc3nncn3C)cc2)ccc1OCC(=O)N1CC(C)OC(C)C1 (stereo not drawn)
  0%, -10%, 1%
- CC(C)N(C(=O)CSc1nnc(NC2CC2)s1)c1ccccc1
  0%, -7%, -12%
- O=C(NCC1COc2ccccc2O1)c1ccc(Cl)c(S(=O)(=O)N2CCCC2)c1 (stereo not drawn)
  -1%, -22%, -13%
- CC1(C)CC2CC(C)(CN2S(=O)(=O)c2cccc(C(N)=O)c2)C1 (stereo not drawn)
  0%, 0%, 2%
- OCC[C@H]1C[C@@H](O)[C@H](O)[C@]2(CCc3ccccc3CO2)O1
  0%, -4%, 8%
- CC1CC(C)CN(C(=O)CN2C(=O)NC3(CCCCCCC3)C2=O)C1 (stereo not drawn)
  0%[6.58 µM], 1%, -1%
- C[C@@H]1CN([C@H](C)CO)C(=O)c2cccc(NS(=O)(=O)c3ccccc3)c2O[C@H]1CN(C)C
  -1%, -13%, 2%
- CN(C)S(=O)(=O)c1cccc(COC(=O)CCNC(=O)c2ccc([N+](=O)[O-])cc2)c1
  -1%, -7%, 4%
- C[C@H](CO)N1C[C@H](C)[C@@H](CN(C)S(C)(=O)=O)Oc2ccc(NS(=O)(=O)c3cn(C)cn3)cc2C1=O
  -7%, -6%, -9%
- COc1ccc(CNC(=O)C[C@H]2C[C@H](C(=O)N3CCOCC3)[C@@]3(C)c4[nH]c5ccc(Cl)cc5c4CCN3C2=O)cc1OC
  -1%, -19%, -7%
- C[C@@H]1COC(=O)[C@@H](Cc2ccc(F)cc2)C/C=C\C[C@@H](CC(=O)N[C@H](CO)Cc2ccccc2)C(=O)N1
  1%, u, -2%
- Clc1nc(CN2CCOCC2)nc2sc3c(c12)CCC3
  23%, -18%, -13%
- C[C@H]1CN=C(N(C)C)N1CCCC1CCCCC1
  -4%, -29%, 1%
- N=C1/C(=C/c2cccn2Cc2ccc(F)cc2)C(=O)N=C2SC=CN12
  1%, -17%, 9%
- O=C(C[C@H]1C/C=C\CCCC(=O)OC[C@H]2CCCN2C1=O)NCCO
  2%, -14%, -10%
- CCCc1cc(=O)[nH]c(SCC(=O)N2CC3(C)CC2CC(C)(C)C3)n1 (stereo not drawn)
  0%, -16%, 0%
- NC(=O)CCCn1c(C(=O)c2cc(Cl)c(N)c(Cl)c2)c2ccc([N+](=O)[O-])cc2[n+]1[O-]
  1%, u, -4%
- O=C(NCC(=O)N(c1cccc(F)c1)C(C(=O)NC1CCCC1)c1cccnc1)c1cccs1 (stereo not drawn)
  -2%, 13%, -3%
- C[C@@]12C(=O)Nc3cc(Cl)ccc3C(=O)N1[C@H]1c3ccccc3OC[C@@H]1[C@@H]2c1ccccc1
  1%, -28%, 2%
- Cc1ccc(NC(=O)C2CSC3(C)CCC(=O)N23)cc1S(=O)(=O)N1CCOCC1 (stereo not drawn)
  -1%, -5%, -11%
- Cc1ccc(C)c(OCCC(=O)N2CCN(S(=O)(=O)c3cc(F)ccc3F)CC2)c1
  -2%, -25%, -7%
- COc1ccccc1CNC(=O)CN1C(=O)NC2(CCOc3ccccc32)C1=O (stereo not drawn)
  -1%, -18%, -14%
- CC1N=C(N)C(c2nc3ccccc3n2C)=C1O (stereo not drawn)
  -3%, -2%, 2%
- COc1cccc(NC(=O)C(C)Sc2nnc(C3CC3)n2C2CC2)c1 (stereo not drawn)
  1%, 7%, -13%
- CCC(CO)Oc1cc(NCc2cccnc2)c2ncn(C(C)C)c2c1 (stereo not drawn)
  4%, -9%, -10%
- CC(C)N(C(=O)COC(=O)CCC(=O)c1cccs1)c1ccccc1
  -3%, -13%, 14%
- CCOC(=O)c1c(Cc2ccccc2)c[nH]c1C
  -6%, 49%[activator], 1%
- COc1ccc2c(C#CCCO)c(-c3ccc(S(C)(=O)=O)cc3)sc2c1
  3%, -25%, 1%
- CCCCCCSc1ccc([C@H]2N[C@@](C)(C(=O)OC)[C@H]3C(=O)N(CC)C(=O)[C@@H]23)cc1
  1%, -3%, 6%
- COc1ccc(F)cc1C(=O)COC(=O)c1n[nH]c(=O)c2ccccc12
  -9%, -22%, -1%
- COc1cc2cc(CCCOC(=O)c3ccco3)oc(=O)c2cc1OC
  -8%, -16%, -9%
- Cc1ccc(F)cc1NC(=O)c1ccc(OCC2CCCO2)cc1 (stereo not drawn)
  -3%, 36%[activator], -6%
- CCOc1ncccc1C(=O)OCC(=O)Nc1ccc2c(c1)OCCO2
  -4%, 23%, 6%
- Nc1ccn(CC(=O)NCc2ccc3[nH]ccc3c2)c(=O)n1
  -3%, -8%, -4%
- CCOC(=O)CCCNC(=O)COC(=O)c1cc(Br)c(Br)s1
  -4%, 17%, -17%
- Cc1nnc(SC(C)C(=O)Nc2ccc(Cl)cc2Cl)[nH]c1=O (stereo not drawn)
  1%, -28%, 1%
- COc1ccc(Br)c(C(=O)OCC(=O)NC2CCCCCC2)c1
  1%, -16%, 0%
- COc1ccc([C@H]2CC(=O)C=C(c3ccc4c(c3)OCO4)C2)cc1
  0%, 27%, 5%
- Cc1ccc(NC(=O)C(C)OC(=O)COc2cccc(C(F)(F)F)c2)cc1 (stereo not drawn)
  -9%, 0%, -9%

# Full records from above.
# Cc1ccc(NC(=O)C(C)OC(=O)COc2cccc(C(F)(F)F)c2)cc1 (stereo not drawn) reads SARS PLpro yeast = -9%; 2A StopGo = 0%; RE007 growth inh = -9%
# CC(C)N(C(=O)COC(=O)CCC(=O)c1cccs1)c1ccccc1 reads SARS PLpro yeast = -3%; 2A StopGo = -13%; RE007 growth inh = 14%

# Next structures follow:
# The line under a structure holds: SARS PLpro yeast, 2A StopGo, RE007 growth inh
- Cc1cc(C)nc(SCCn2c(N3CCOCC3)nc3c2c(=O)[nH]c(=O)n3C)n1
  -6%, -6%, -2%
- c1ccc(-c2cncnc2)cc1
  -24%, 2%, -3%
- Cc1cc(C)c(NC(=O)CN2C(=O)NC3(CCc4ccccc43)C2=O)c(Cl)c1 (stereo not drawn)
  3%, -1%, 4%
- O=C(N/N=C/c1cc2c(cc1Br)OCO2)c1c[nH]c2ccccc12
  -1%, 0%, -5%
- COCO/C=C(\NC(C)=O)c1ccccc1
  4%, 38%[activator], -1%
- CCCCn1nc(C(=O)N(C)C2CCCCC2)c2ccccc2c1=O
  3%, -15%, 3%
- Cc1ccc(S(=O)(=O)N2[C@@H](c3ccc(F)cc3)C(C(=O)O)=C[C@H]2CC2CCCC2)cc1
  -1%, -3%, 2%
- CCN(C[C@H]1N[C@@](CC)(C(=O)OC)[C@H]2C(=O)N(Cc3ccccc3)C(=O)[C@@H]12)S(=O)(=O)c1ccc(C(F)(F)F)cc1
  0%, -30%, 4%
- O=C(CCC1CCCC1)NNC(=O)c1ccc(F)cc1
  -6%, 8%, -7%
- COc1ccc(OC)c(NC(=O)CSc2nnnn2C)c1
  3%, -15%, 10%
- CN1CCN(C(=O)CNC(=O)C23CC4CC(CC(C4)C2)C3)CC1
  0%, -10%, 4%
- O=C(OCc1nnc(-c2cccs2)o1)c1cccnc1Cl
  -1%, 13%, 17%
- O=C(O)c1cn(Cc2ccccc2Cl)c2ccc(S(=O)(=O)N3CCOCC3)cc2c1=O
  -1%, -13%, 8%
- CCOC(=O)C1=C(COC(=O)CCNS(=O)(=O)c2ccc(C)c(C)c2)NC(=O)NC1C (stereo not drawn)
  3%, 16%, 7%
- COc1ccc(-n2c(=O)c(CCC(=O)N3CCC(C)CC3)nc3ccccc32)cc1
  2%, 15%, -7%
- Cc1c(NS(=O)(=O)c2cccc(C(=O)Nc3ccccc3)c2)c(=O)n(-c2ccccc2)n1C
  5%, -19%, -14%
- CC[C@]1(C(=O)OC)[C@H]2C(=O)N(Cc3ccccc3)C(=O)[C@H]2[C@H]2CN=C(SCc3ccc(Cl)cc3)N21
  -3%, -23%, -14%
- CCOC(=O)c1ccc(S(=O)(=O)NNC(=O)Cc2csc(C)n2)cc1
  -4%, -21%, 4%
- O=C(CSc1ncnc2sccc12)NCc1ccc2c(c1)OCO2
  -4%, -13%, -3%
- CCCCCCSc1ccc([C@@H]2[C@H]3C(=O)N(CC)C(=O)[C@H]3[C@]3(C(=O)OC)CCCN23)cc1
  -1%, -21%, 11%
- Cc1ccccc1NC(=O)Cc1nc(COC(=O)c2nc(Cl)ccc2Cl)cs1
  -3%, 5%, -1%
- CN(CC(=O)Nc1ccc(OC(F)(F)F)cc1)C(=O)Cn1c(=O)cnc2ccccc21
  1%, -5%, 2%
- C[C@H](NC(=O)c1ccc(Cl)cc1)C(=O)NNC(=O)c1cccs1
  -26%, -9%, 2%
- O=C(/C=C/c1cn(-c2ccccc2)nc1-c1cccnc1)N1CCCC1
  -1%, 11%, 1%
- CON(C)C(=O)/C=C/CCCCNC(=O)OC(C)(C)C
  6%, -5%, 0%
- NNC(=O)c1n[nH]c2c1CC(C1CCCCC1)CC2 (stereo not drawn)
  1%, -29%, -4%
- O=C1NC(=O)/C(=C\c2ccc(O)cc2O)S1
  -2%, 58%[activator], 4%
- Cc1ccc2c(c1)C(=O)C(=O)N2Cc1ccc(C(F)(F)F)cc1
  -9%, -22%, 5%
- Cc1ccsc1C(=O)N1CCN(C(=O)c2ccco2)CC1
  -1%, -12%, 6%
- C=CCn1c(SCC(=O)NCC(c2ccccc2)N(C)C)nnc1C1CCCCC1 (stereo not drawn)
  -7%, -9%, 7%
- CC(C)(C)OC(=O)N1CCC(NC(=O)c2nc[nH]c2C(=O)NC2CCN(C(=O)OC(C)(C)C)CC2)CC1
  0%, -9%, 3%
- Cc1ccc(NC(=O)CN(C)CC(=O)N(C)Cc2ccccc2)cc1
  2%, 6%, -8%
- Cc1ccc(C(=O)OCC(=O)NC2CCS(=O)(=O)C2)c(C)c1 (stereo not drawn)
  4%, -20%, 1%
